Screens (PubChem)
NPYLR7 agonist = mosquito NPYLR7 agonism. 270,000 tested, 0.15% active. activation, % at 10 µM. HEK293T NPYLR7/Galpha15, GCaMP6s calcium fluorescence. AID 1259423; in the data active = activation above about 40%;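 also: 0% = vehicle and 100% = reference agonist at the receptor; some compounds past the cut are filed as inactive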
NPYLR7 agonist max-min = second read-out of NPYLR7 agonist, no call of its own (marks repeat the call); activation, %; measured here: Max-Min RFU normalised activation; some inactives read as strong as hits;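 span of the calcium signal over five minutes; 0% = vehicle and 100% = native peptide agonist; compound fluorescence can raise it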
Active calls of the source: *; & = joins results of further samples. This is a subset. The share of hits here may be higher or lower than overall.

compound,NPYLR7 agonist,NPYLR7 agonist max-min
O=C(C=Cc1ccco1)Nc1ccc(F)c([N+](=O)[O-])c1,8,13
C=C(C)Cn1c(=O)c2c(nc3n2CCN3c2ccc(C)cc2)n(C)c1=O,2,1
C=CCc1c(C)c(C#N)c2nc3ccccc3n2c1NCc1ccccn1,10,2
Cc1cc(C)c2nc(N(Cc3cccnc3)C(=O)c3ccc([N+](=O)[O-])o3)sc2c1,-19,-16
C=Cc1ccc(S(=O)(=O)N2CCCN(Cc3cc(=O)c(OCc4ccc(C(C)(C)C)cc4)co3)CC2)cc1,12,8
N#CCc1c(C#N)c(N)nc(N2CCCc3ccccc32)c1C#N,1,-2
Clc1ccccc1CN1C2=NCCN2c2ccccc21,6,2
Cc1cc(OCc2nc(C(=O)NCC(C)C)cs2)ccc1Cl,23,20
CC1NCCN(c2cccc(F)c2)C1=O (stereo unspecified),-2,1
CN(c1ncccc1C(=O)N1CCCC(O)(CO)CC1)C1CCCCC1 (stereo unspecified),9,4
CCOC(=O)C1CCN(c2cc(C)nn3cnnc23)CC1,0,-2
CC(NC(=O)c1ccccc1OC(F)F)c1ccc(-n2ccnc2)cc1 (stereo unspecified),-2,-1
CCNC(=O)c1sc(=S)n(CC)c1N,0,8
Cc1cc(N(Cc2ccco2)C2CC2)n2nc(C(F)(F)F)nc2n1,3,-1
Cc1ccc(CN2CCN(Cc3c[nH]c4ccccc34)CC2CCO)o1 (stereo unspecified),5,0
COc1ccc(S(=O)(=O)N(Cc2cccnc2)Cc2nccn2Cc2ccccc2C(F)(F)F)cc1,18,27
CC(C)CCNCc1cn[nH]c1-c1cccs1,6,5
O=C(Nc1n[nH]c(C2CCCCC2)n1)N1CCCC(c2ccccc2)C1 (stereo unspecified),-3,-2
O=C(CN1CCC[C@H]1C(=O)NC(c1ccccc1)c1ccccc1)Nc1ccccc1-n1cccc1,4,8
Cc1nc(C2CC2)nc2sc(C(=O)NC(C)c3ccc(Cl)cc3)c(C)c12 (stereo unspecified),9,7
OCCN(C=NC1=NN(c2ccccc2)CC1)CCO,-4,-6
CC(C)c1ccc(S(=O)(=O)Nc2ccccc2C(=O)NCCc2ccc(F)cc2)cc1,-2,9
N#CC(c1ccccc1)c1ccc(N)cc1 (stereo unspecified),1,-2
CC(C)CN(C(=O)CN(C)C1CCCCC1)c1c(N)n(CC(C)C)c(=O)[nH]c1=O,8,14

7 compounds picked at random from those above:
compound,NPYLR7 agonist,NPYLR7 agonist max-min
O=C(Nc1n[nH]c(C2CCCCC2)n1)N1CCCC(c2ccccc2)C1 (stereo unspecified),-3,-2
Cc1ccc(CN2CCN(Cc3c[nH]c4ccccc34)CC2CCO)o1 (stereo unspecified),5,0
COc1ccc(S(=O)(=O)N(Cc2cccnc2)Cc2nccn2Cc2ccccc2C(F)(F)F)cc1,18,27
CC(C)c1ccc(S(=O)(=O)Nc2ccccc2C(=O)NCCc2ccc(F)cc2)cc1,-2,9
CC(C)CN(C(=O)CN(C)C1CCCCC1)c1c(N)n(CC(C)C)c(=O)[nH]c1=O,8,14
OCCN(C=NC1=NN(c2ccccc2)CC1)CCO,-4,-6
Cc1cc(N(Cc2ccco2)C2CC2)n2nc(C(F)(F)F)nc2n1,3,-1

The list continues:
compound,NPYLR7 agonist,NPYLR7 agonist max-min
CC1CCc2c(sc3nc(SCC#N)nc(SCC#N)c23)C1 (stereo unspecified),-3,-7
C=CCN(Cc1nccn1Cc1ccccc1)C(=O)CCc1ccccc1,22,33
CCOC(=O)c1c(NCc2ccccc2)c2cccc(Cl)c2[nH]c1=O,-2,-5
Cc1nc2ccccc2nc1NCCC1CCCO1 (stereo unspecified),1,0
O=C(CSc1ncnc2c1nnn2Cc1ccc(F)cc1)N1CCCc2ccccc21,14,16
O=C(NCc1ccccc1)c1c2c(nn1C1CCS(=O)(=O)C1)CCC2 (stereo unspecified),4,3
Cn1c(SCc2ccc(Br)cc2F)nnc1-c1cccnc1,6,1
Fc1ccc(N2CCCN(Cc3ccc(-c4ccn[nH]4)o3)CC2)cc1,2,0
COCc1ccc(C(=O)NCc2cccnc2-n2cnc3ccccc32)o1,1,1
CCNC(=O)N1CCC(NC(=O)CSC(C)C)CC1,21,13
CC(=O)Nc1ccc(-c2c(-c3ccccc3)ncn2C2CC=CC2)cc1,17,8
OCCN1CCN(c2cc(-c3ccc4ccccc4c3)nc3ccnn23)CC1,-3,-7
Cc1ccc(OCC(=O)Nc2nc(CN3CCCCC3)cs2)c(C)c1,-1,26
O=C(c1ccc(=O)[nH]c1)N1CCC(N2CCCC(C(=O)N3CCCC3)C2)CC1 (stereo unspecified),17,9
O=C(c1cc(-c2ccc([N+](=O)[O-])cc2)nn1-c1ccccc1Cl)N1CCN(c2cccc(C(F)(F)F)c2)CC1,3,8
COC(=O)N1C(C)C2C=CC1C(C(=O)O)C2C(=O)O (stereo unspecified),0,17
C=CCn1c(SCc2cccc(C)c2)nc2c1c(=O)n(C)c(=O)n2C,2,-4
C=CC[C@@H]1CC=C[C@@H](C)N1C(=O)c1cn2c3c(cccc3c1=O)CC2,0,-4
Cc1nnc(NC(=O)c2ccc(Cl)c(NS(C)(=O)=O)c2)s1,2,17
COc1ccc(CCOc2nc(-c3ccccc3F)n(-c3ccc(NC(=O)c4ccc(C(F)(F)F)cc4)cc3)n2)cc1,15,13
CN(C)c1nc(N)nc(CSc2ncc(-c3ccc([N+](=O)[O-])cc3)[nH]2)n1,-9,-13
CCOC(=O)Cn1c(=O)c2c(nc3n(-c4cc(C)cc(C)c4)c(C)c(C)n23)n(C)c1=O,0,-3
COc1ccc(CN(Cc2nc3cc(C)ccc3o2)C(=O)c2cc(OC)cc(OC)c2)cc1,0,-4
C=CCN1CC2=C(C1=O)C(c1ccc(Br)cc1)NC(=O)N2 (stereo unspecified),2,1
COc1cc(OC)cc(-n2c(-c3ccccc3)cc(C(=O)N3CCOCC3)c2C)c1,-4,1
COc1cccc(-c2nc(C=Nc3ccc(Cl)cc3C)c(O)o2)c1,-7,-11
CC1=NS(=O)(=O)c2cc(C(=O)O)ccc2N1CC(C)C,2,1
Cc1ccc(-c2nc3ccccn3c2NC(=O)C(c2ccccc2)c2ccccc2)cc1,-1,3
CC(O)CNc1ncnc2sc3c(c12)CCC3 (stereo unspecified),1,0
c1cc(-c2ccoc2)c2c(C3CCNCC3)[nH]nc2n1,3,2
CC(C)N1CCC(N2CCN(Cc3cn[nH]c3C3CCCCC3)CC2CCO)CC1 (stereo unspecified),1,-3
NC(=O)NC(CC(=O)N1CCN(c2ccccc2F)CC1)c1ccc(Cl)cc1 (stereo unspecified),3,0
CC1CCN(c2nc3c(c(=O)n(C)c(=O)n3C)n2Cc2ccccc2)CC1,14,17
COc1ccc2cc(C(=O)C3CCCN(C(=O)c4sccc4C)C3)ccc2c1 (stereo unspecified),-10,-11
C=CCNC(=O)C(NC(=O)c1ccc(F)cc1)C1CCN(C(=O)C2CC2)CC1 (stereo unspecified),9,11
Cc1cc(C)c(C)c(OCc2nc(CN(C)C(=O)CC(C)C)cs2)c1,20,23
CN1CCC(C(=O)NCC2CCCOC2)CC1=O (stereo unspecified),8,6
CN1C(=O)CC(C(=O)Nc2nc3ccccc3[nH]2)C1c1ccccc1 (stereo unspecified),0,-3
Cc1ccc(-c2nc(CN(CCO)Cc3cccs3)c(C)o2)o1,-2&12,-3&4
O=C1NC(=O)C2C3C=CC(C3=C(c3ccccc3)c3ccccc3)C12 (stereo unspecified),-10,-10
CCC1(C)NC(=O)N(CC(=O)O)C1=O (stereo unspecified),2,7
COc1ccc(C(=O)N(CCCN2CCOCC2)CC(=O)N(Cc2ccc(F)cc2)Cc2ccco2)cc1,-1,11
O=S(=O)(Nc1ccc(-n2cncn2)c(F)c1)N1CCCCC1,8,3
Cc1onc(-c2c(Cl)cccc2Cl)c1C(=O)NCCCN1CCOCC1,8,3
COc1ccsc1C(=O)N1CCCC1c1c(C)nn(C)c1Cl (stereo unspecified),1,-2
CCn1nc(C)c(CNC(C)CC(C)(C)OC)c1C (stereo unspecified),1,4
Cc1cc(=O)oc(C)c1C(=O)NC1CCC(C)CC1 (stereo unspecified),3,2
O=C(CCc1ncc(-c2ccc(F)cc2)o1)N1CCN(c2ccc(F)cc2)CC1,-2,-3
Fc1ccc(Br)c(CSc2nnc(-c3cc(-c4ccccc4)nc4ccccc34)n2CC2CCCO2)c1 (stereo unspecified),0,5
CNC(=S)NN=Cc1cc2c(cc1[N+](=O)[O-])OCO2,3,-5
CCc1[nH]nc(C(=O)N2CCCC(CNS(=O)(=O)c3ccc(OC)cc3)C2)c1C (stereo unspecified),-2,-5
CC(=O)Nc1ccc(S(=O)(=O)N2CCn3cccc3C2C)cc1 (stereo unspecified),6,4
Cc1cc(C(=O)NCC(C)(C)c2ccc3c(c2)OCO3)ccc1-n1cnnn1,8,6
COc1ccc(S(=O)(=O)N2CCC(C(=O)NC3CCCC[C@H]3NC(=O)c3ccccc3)CC2)cc1 (stereo partly specified),11,9
O=c1c2c(cnn2-c2ccccc2)c(C2CC2)nn1Cc1ccccc1Cl,8,4
O=C(c1cccc(Cl)c1)N(Cc1ccco1)C1CCS(=O)(=O)C1 (stereo unspecified),-16,-15
CC(=O)Cn1c(=O)c2c(nc3n(CCc4ccccc4)c(C)cn23)n(C)c1=O,12,8
CCOc1ncccc1CN1CCC(C(=O)N[C@@H]2CCCc3ccccc32)CC1,-8,-11
Cc1cccc(Oc2ccc(C(=O)N3CCC4(CC3)NCCNC4=O)cc2)c1,12,11
CCCS(=O)(=O)N1CCN(c2cc(S(=O)(=O)N(CC)CC)ccc2OC)CC1,-2,-1

Profiles, quoted from the list. Order of values: NPYLR7 agonist	NPYLR7 agonist max-min
`COc1ccc(S(=O)(=O)N2CCC(C(=O)NC3CCCC[C@H]3NC(=O)c3ccccc3)CC2)cc1` (stereo partly specified) across the screens: 11	9
`CNC(=S)NN=Cc1cc2c(cc1[N+](=O)[O-])OCO2` across the screens: 3	-5
`Fc1ccc(Br)c(CSc2nnc(-c3cc(-c4ccccc4)nc4ccccc34)n2CC2CCCO2)c1` (stereo unspecified) across the screens: 0	5
`O=c1c2c(cnn2-c2ccccc2)c(C2CC2)nn1Cc1ccccc1Cl` across the screens: 8	4

(continued)
compound,NPYLR7 agonist,NPYLR7 agonist max-min
CC1CCC(NC(=O)CN(CCN2CCCS2(=O)=O)c2cccc(F)c2)CC1 (stereo unspecified),6,6
CCCc1nnc2c(=O)n(-c3ccccc3)ccn12,1,-7
O=C(COc1cccnc1)N1CCOC(c2ccccc2)C1 (stereo unspecified),-10,-4
Cc1cc2ncccc2nc1Cl,-5,-2
O=C(NC1CC1)C(C1CCCC1)N1CCN(C(=O)c2ccco2)CC1 (stereo unspecified),-8,-7
NC(=O)c1cccc(-c2cnc3ccc(Cc4ccc(F)c(F)c4)nn23)c1,-3,-7
CN(Cc1cc(-c2cccs2)n[nH]1)S(=O)(=O)NCc1ccccc1,5,4
CCCCC1CCC(C(=O)Nc2c3c(nn2-c2ccc([N+](=O)[O-])cc2)CS(=O)(=O)C3)CC1 (stereo unspecified),0,-1
O=C(NCC1CCCO1)NC(CCCc1ccccc1)c1ccccc1 (stereo unspecified),10,9
Cc1[nH]c(=O)c(C#N)c(C)c1CCC(=O)O,5,5
CCOP(C)(=O)C(c1ccccc1)N(C)S(C)(=O)=O (stereo unspecified),-1,31
CCS(=O)(=O)c1ccc(Cl)c(C(=O)Nc2ccc(F)cc2)c1,0,-2
CCOC(=O)N(C)c1c(CC)nc2c(OCc3ccc(Cl)cc3)cccn12,5,-8
Cc1cccc(OC(=O)C2CC2)c1C,-2,3
NC(=O)c1cccc(N=c2oc3ccc(Br)cc3cc2C(N)=O)c1,-5,-13
CC1CCCN(C(=O)Cn2cnnc2S(C)=O)C1 (stereo unspecified),-3,-7
CCOCCn1c(CN(Cc2ccccc2)Cc2ccccc2)nc2c1c(=O)n(C)c(=O)n2C,-2,-6
Cc1cc(=O)oc(C)c1C(=O)NCCCN(CC(C)C)CC(C)C,7,5
CCOc1ccccc1C(=O)NCCCC(=O)Nc1cccc(C#N)c1,7,7
Cc1ccc(N2C(=O)CSC2c2ccccc2NC(=O)c2ccc(Cl)c([N+](=O)[O-])c2)c(C)c1 (stereo unspecified),3,4
CCN1CCN(C(=O)c2cc(-c3ccc(OC)cc3)n(-c3ccc(C)cc3)c2C)CC1,-16,-16
COc1cc(NC(=O)CN2CCC(C(=O)N3CCCC3)CC2)c(OC)cc1Cl,-7,-8
O=C(CNC1(c2cccc(Br)c2)CCOCC1)N1CCCC(C(F)(F)F)C1 (stereo unspecified),-2,-5
O=C(NC1CC1)C(=O)N1CCN(C(=O)c2c[nH]cc2-c2ccccc2)CC1,1,14
CCOc1ncccc1CNC(=O)C(C)(C)NC(=O)c1cccs1,9,5

Some of these compounds in order of SMILES length, lowest first:
compound,NPYLR7 agonist,NPYLR7 agonist max-min
CCOc1ncccc1CNC(=O)C(C)(C)NC(=O)c1cccs1,9,5
NC(=O)c1cccc(N=c2oc3ccc(Br)cc3cc2C(N)=O)c1,-5,-13
COc1cc(NC(=O)CN2CCC(C(=O)N3CCCC3)CC2)c(OC)cc1Cl,-7,-8
